Marburg entry inh: Marburg virus entry inhibition; Potency, µM (doses to about 37.8 µM), for inactives: at the highest dose activity change, negative = inhibition, actives largely listed as inhibitors; AID 540276; 1.8% of 300,000 active; Marburg virus pseudotyped entry inhibition, cell reporter; control for the full effect not named in the record; about a third of the inactives were read at about 46 µM; active = well fitted inhibition curve with a large enough effect; inconclusive = small, poorly fitted or top-dose-only effect, or effect the other way; inactive = flat fitted curve, though single readings scatter; tested in HEK293 cells; about a fifth of its hits are not listed in these tables; note: % is set by controls: 0 for no effect and ±100 for the full control effect; luciferase read-out
Lassa entry inh: blocks Lassa virus binding to or entry into cells; Lassa virus pseudotype entry inhibition, cell reporter; control for the full effect not named in the record; Potency, µM (highest dose often 37.9 µM), for inactives: at the highest dose activity change, negative = inhibition, hits mostly inhibitors; 1.2% of 300,000 active; AID 540256; active means well fitted inhibition curve with a large enough effect; inconclusive means small, poorly fitted or top-dose-only effect, or effect the other way; inactive means flat fitted curve, though single readings scatter; tested in HEK293 cells; note: % is set by controls: 0 for no effect and ±100 for the full control effect; nearly all actives have a fitted effect of over 50% in size; luciferase read-out
SARS PLP yeast: SARS-CoV PLP inhibition in yeast. S. cerevisiae expressing SARS-CoV PLpro, growth rescue; control for the full effect not named in the record. 0.19% of 330,000 active. Potency, µM (top dose mostly 32.9 µM), inactives show at the highest dose activity, positive = growth rescue. AID 485353; active means well fitted rising curve with a large enough effect; inconclusive means small, poorly fitted or top-dose-only effect; inactive means no such curve, though single readings can be large or run the other way; note: 0% is about no effect; nearly all actives have a fitted effect of over 55% in size; growth read by luminescence after 48 h
RE007 growth inh: less growth of the S. pombe RE007 Vpr strain; AID 651644; 0.21% of 360,000 active; Potency, µM (doses to about 92.2 µM), for inactives: at the top dose activity change, negative = less growth; S. pombe RE007 Vpr strain, BacTiter-Glo ATP luminescence, 24 h; control for the full effect not named in the record; active = well fitted falling curve with a large enough effect; inconclusive = small, poorly fitted or top-dose-only effect; inactive = no such curve, though single readings can be large or run the other way;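 note: % is set by controls: 0 for no effect and ±100 for the full control effect; nearly all actives have a fitted effect of over 50% in size; the assay follows cell death caused by Vpr and the record does not say whether a fall means rescue or toxicity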
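Fission yeast strain RE007, carrying one chromosomally integrated HIV-1 vpr copy, was seeded at OD 0.01 in PMG+AL medium with 23 nL pinned compound. After 24 h at 30 °C and 99% humidity, viability was read by BacTiter-Glo luminescence.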
Cruzain inh Det: inhibitors of Trypanosoma cruzi cruzain with detergent | P25779 | purified cruzain, Z-FR-AMC fluorescence, 0.01% Triton | Potency, µM, without a hit: max response, negative = inhibition, usual class: inhibitors | 0.43% of 200,000 active;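 note: plate controls were neutral wells for no effect and buffer without enzyme for full effect; nearly all actives have a fitted effect of over 40% in size; top concentration of the series not given in the record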
Target sequence (P25779 123-467 limits assumed): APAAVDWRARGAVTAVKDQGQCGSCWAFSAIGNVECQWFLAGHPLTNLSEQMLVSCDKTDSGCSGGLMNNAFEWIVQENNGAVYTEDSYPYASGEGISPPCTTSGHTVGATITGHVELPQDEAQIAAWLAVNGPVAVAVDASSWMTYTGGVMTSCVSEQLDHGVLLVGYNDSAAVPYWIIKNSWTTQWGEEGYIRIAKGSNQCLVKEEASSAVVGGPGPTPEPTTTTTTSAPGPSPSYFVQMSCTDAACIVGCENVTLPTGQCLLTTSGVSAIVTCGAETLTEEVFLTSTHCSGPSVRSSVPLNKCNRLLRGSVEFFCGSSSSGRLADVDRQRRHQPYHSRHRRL
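Detergent-containing run (0.01% Triton X-100) in acetate buffer pH 5.5 with 5 mM DTT: enzyme at 1.5 nM final, 15 min compound preincubation at room temperature, then 2 uM Z-FR-AMC substrate. Activity taken as 60 s fluorescence increase at 360/450 nm.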
NS1 inh: blocks influenza NS1 protein function; S. cerevisiae slowed by influenza A NS1, growth recovery by OD600; Potency, µM (doses to about 46.1 µM), for inactives: at the highest dose activity, positive = more growth; 0.4% of 270,000 active; active means well fitted rising curve with a large enough effect; inconclusive means small, poorly fitted or top-dose-only effect; inactive means no such curve, though single readings can be large or run the other way; note: nearly all actives have a fitted effect of over 50% in size
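Growth recovery, yeast-based: influenza A NS1 expressed in S. cerevisiae causes slow growth, and suppressors are detected by OD600. The parent strain without NS1 is used as positive control.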
StopGo reporter: lowers the luciferase signal of an FMDV 2A StopGo reporter. AID 1159524. human cells with a luciferase reporter of 2A StopGo recoding; control for the full effect not named in the record. Potency, µM (highest dose often 57.9 µM), without a hit: top-dose signal change, negative = less light. 1.2% of 410,000 active; active = well fitted falling curve with a large enough effect; inconclusive = small, poorly fitted or top-dose-only effect; inactive = no such curve, though single readings can be large or run the other way; tested in HEK293T cells; note: % is set by controls: 0 for no effect and ±100 for the full control effect; nearly all actives have a fitted effect of over 45% in size; luciferase light after 4 h
Cruzain noTriton: cruzain (T. cruzi) inhibition without detergent | AID 1476 | Potency, µM, without a hit: max response, negative = inhibition, actives largely listed as inhibitors | purified cruzain, Z-FR-AMC fluorescence, no detergent | 2.3% of 200,000 active | P25779;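 note: plate controls were enzyme without inhibitor for no effect and buffer without enzyme for full effect; nearly all actives have a fitted effect of over 40% in size; top concentration of the series not given in the record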
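Purified cruzain at 1.5 nM, pre-incubated 15 min with compound at room temperature in 100 mM sodium acetate pH 5.5, 5 mM DTT, 0.00005% Triton X-100. Reaction started with 2 uM Z-FR-AMC; AMC fluorescence increase over 60 s gives rate.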
The depositor's hits bear a star; ? = inconclusive; · = no result given; & = joins results of further samples; [ ] = remark or other dose. Unless noted, calls come from the whole dose curve; as a rule, active = well fitted curve in the direction sought with a large enough effect; inconclusive = small, poorly fitted or top-dose-only effect, or another doubt; inactive = no such curve, though single readings can be large; an effect the other way counts as inactive or inconclusive. Potency is the fitted concentration of half-maximal effect.

Value order – Marburg entry inh	Lassa entry inh	SARS PLP yeast	RE007 growth inh	Cruzain inh Det	NS1 inh	StopGo reporter	Cruzain noTriton
COc1cc(C(=O)NCC(c2cccnc2)N2CCc3ccccc32)cc(OC)c1OC (stereo unspecified)
    ·	?	·	·	-6.9%	·	-21%	?
CC(C)c1ccc(/C=N\NC(=O)c2ccc(Cn3cccn3)o2)cc1
    0%	?	23%	16%	-3.1%	-2%	?	-8%
O=C(N/N=C/c1ccc2c(c1)OCO2)C(O)c1ccccc1 (stereo unspecified)
    ?	?	7%	1%	-6.3%	12%	69%[activator]	-4%
COc1cc(C=O)c(-c2c(C=O)cc(OC)c3c2OCO3)c2c1OCO2
    ·	·	-1%	11%	·	-11%	-26%	·
CC(=O)N1CCc2cc(S(=O)(=O)CCC(=O)Nc3c(C)n(C)n(-c4ccccc4)c3=O)ccc21
    -5%&0%	4%	2%	-4%	-1.2%	-5%	6%	-10%
COc1ccc(S(=O)(=O)N(CC(=O)NCc2ccc(C)cc2)c2ccc(Cl)cc2)cc1
    1%[46.1 µM]	2%[46.1 µM]	·	·	1.2%	·	0%	6%
Cc1c(S(=O)(=O)N2CCC(C)CC2)c(=O)n(C)c(=O)n1C
    23%[46.1 µM]	5%	-6%	10%	·	·	-5%	·
CCOc1ccc(OCCCC(=O)NNC(=O)c2ccncc2)cc1
    8%	2%	-3%	40%	·	·	-12%	·
CCOc1ccccc1NC(=O)CSc1cn[nH]n1
    1%[46.1 µM]	2%	2%	6%	·	·	4%	·
COC(=O)c1c(C)[nH]c(/C=N/Nc2ccccc2)c1C
    ?	-15%	1%	37%	·	1%	61%[activator]	·
CCCNC(=O)NC(=O)CN1C(=O)NC(C)(c2ccc(C)cc2)C1=O (stereo unspecified)
    8%	-2%	5%	16%	1.5%	3%	-8%	7%
Cc1ccc(C)c2c1N(Cc1ccccc1)C(=O)C21OCCO1
    ·	·	3%	1%	·	8%	-13%	·
O=C(O)CC1c2ccccc2CCN1S(=O)(=O)c1ccc(F)cc1 (stereo unspecified)
    5%	-10%	1%	4%	·	0%	-1%	·
CN1CCCC(OC(=O)CCCC(=O)OC2CCCN(C)C2)C1 (stereo unspecified)
    -29%	-2%	17%	-5%	-0.6%	-21%	-4%	-7%
Cc1cccc(OCC(=O)N2CCN(C(=O)c3ccco3)CC2)c1
    0%	12%	0%	-1%	·	0%	-16%	·

Complete entries, looked up by structure:
`Cc1c(S(=O)(=O)N2CCC(C)CC2)c(=O)n(C)c(=O)n1C` is listed as Marburg entry inh = 23%[46.1 µM]; Lassa entry inh = 5%; SARS PLP yeast = -6%; RE007 growth inh = 10%; Cruzain inh Det = ·; NS1 inh = ·; StopGo reporter = -5%; Cruzain noTriton = ·
`COc1cc(C=O)c(-c2c(C=O)cc(OC)c3c2OCO3)c2c1OCO2` is listed as Marburg entry inh = ·; Lassa entry inh = ·; SARS PLP yeast = -1%; RE007 growth inh = 11%; Cruzain inh Det = ·; NS1 inh = -11%; StopGo reporter = -26%; Cruzain noTriton = ·

Next entries follow.
Value order – Marburg entry inh	Lassa entry inh	SARS PLP yeast	RE007 growth inh	Cruzain inh Det	NS1 inh	StopGo reporter	Cruzain noTriton
C#Cc1ccc([C@@H]2C=C(C(=O)OCC=C)O[C@H](OCC)[C@H]2CCCO)cc1
    ·	·	0%	-10%	·	2%	?	·
COc1ccc(S(=O)(=O)N2CCOCC2)cc1NC(=O)Cc1ccccc1Cl
    2%	11%	-2%	4%	-2.9%	-14%	0%	0%
CN(CCOc1ccccc1)C(=S)Nc1ccc(OC(F)F)cc1
    7%[46.1 µM]	-3%	-5%	-7%	·	-37%	11%	·
CCOC(=O)c1cc(NC(=O)C2CCCO2)cc(C(=O)OCC)c1 (stereo unspecified)
    14%	-25%[14.3 µM]	4%	1%	-0.6%	-34%	-3%	17%
CC(O)c1n(C)c(Cl)c[n+]1C (stereo unspecified)
    9%	17%	12%	4%	1.1%	7%	-4%	0%
CC(C)(C)c1nnc(NC(=O)c2cc(-c3ccccc3)nc3ccccc23)s1
    -8%	-5%	-2%	2%	-3.2%	23%	-29%	-28%
CCCCc1c(O)nc(SCCN(C)C)n(-c2ccccc2)c1=O
    -12%&-12%&-12%[46.1 µM]	-19%	-10%	-5%	1.0%	-7%	3%	-11%
COc1ccccc1S(=O)(=O)Cc1ccc(C(=O)NCc2cccs2)o1
    10%	?	-9%	2%	2.6%	-8%	0%	-1%
COc1ccc(Cl)cc1NC(=O)CN1CCC(n2nnc3cc(C)ccc32)CC1
    ?	?	-6%	2%	-1.4%	-56%	?	?
CN1CCN(c2ccc(C(F)(F)F)cc2N)CC1
    28%[46.1 µM]	9%	1%	5%	·	·	25%	·
CCn1cc(C(=O)O)c(=O)c2cnc(N3CCN(C(=S)NC(=O)c4ccc(F)c(F)c4)CC3)nc21
    0%[46.1 µM]	12%[46.1 µM]	-3%	10%	·	19%	11%	·
CCN(CC)c1nc2c(c(=O)[nH]c(=O)n2C)n1CCCc1ccccc1
    ?	-9%[46.1 µM]	-2%	14%	·	-9%	?	·
Cc1cc(C)cc(NC(=O)Cn2nnc(C(=O)NCc3ccc(F)cc3)c2N)c1
    ·	·	3%	-5%	·	-4%	-11%	·
Cc1nn(-c2ccccc2)nc1C(=O)NNC(=O)c1cccc2ccccc12
    ·	·	1%	-13%	·	3%	-19%	·
COc1cc(OC)c(NC(=O)C(=O)CC(=O)c2ccc(C)cc2C)cc1Cl
    ?	8.2µM*	8%	5%	·	·	-11%	·
Cc1ccc(NC(=O)C2CCN(S(C)(=O)=O)CC2)cc1
    -5%	-1%	3%	5%	2.3%	8%	-5%	-2%
C=CCn1c(SCC(=O)Nc2nc(C)cs2)nnc1C(CO)NC(=O)c1ccccc1 (stereo unspecified)
    -4%&7%	-2%	-7%	17%	0.3%	7%	-9%	-1%
CC(C)C(C(=O)Nc1ccc2c(c1)OCO2)N1C(=O)c2ccccc2C1=O (stereo unspecified)
    -7%	?	-10%	60%	-1.6%	-33%	-14%	-11%
CCCCOc1ccc(NC(=O)CSc2ccc(C(=O)O)cn2)cc1
    ?	-1%[46.1 µM]	·	·	-2.0%	·	-5%	-14%
O=C1CSCc2nc3ccccc3n21
    6%	-6%[46.1 µM]	·	16%	·	·	-2%	·
CCOC(=O)N1CCN(S(=O)(=O)c2cc(OCC(=O)NC3CCCCC3)c(C)cc2Cl)CC1
    ?	18%	0%	30%[3.69 µM]	0.2%	-7%	0%	?
O=C(O)CNC(=O)/C=C/c1c(Cl)cccc1Cl
    12%	13%	-2%	2%	·	·	-18%	·
COC(=O)C1CCN(C(=O)c2ccc(Cl)c(S(=O)(=O)NCc3cccnc3)c2)CC1
    16%&16%	6%	3%	-6%	1.5%	2%	26%	2%
CN1CCN(c2ccc(-c3ccc4ccccc4n3)cc2)CC1
    ?	·	0%	?	·	2%	1.8µM*	·
N#Cc1c(C(F)(F)F)cc(-c2cccs2)nc1SCc1ccc(F)cc1
    6%[46.1 µM]	-2%[46.1 µM]	·	·	-1.4%	·	-16%	8%
O=C(COc1ccc(Cl)cc1)Nc1ccccc1C(=O)NCc1ccco1
    0%	?	1%	3%	1.0%	-12%	·	-6%
CCC(C(=O)Nc1cc(C(=O)O)ccc1C)c1ccccc1 (stereo unspecified)
    5%	-20%[46.1 µM]	0%	42%	·	5%	16%	·
CCCCc1nn2c(=O)cc(COC(=O)c3ccc(NC(=O)c4cccc(OC)c4)cc3)nc2s1
    ·	5%[46.1 µM]	·	·	8.3%	·	1%	-2%
CCN1C(=O)/C(=C2/C=Cc3ccccc3N2CC)SC1=S
    -7%	·	0%	6%	·	·	13%	·
CCCOc1ccc(C2c3c(oc4cc(C)c(C)cc4c3=O)C(=O)N2CCCN(C)C)cc1OCC (stereo unspecified)
    -4%	-19%	2%	-12%	-1.0%	-42%	-20%	8%
CC(C)(Oc1ccc(Cl)cc1)C(=O)NCC1CCCO1 (stereo unspecified)
    2%[46.1 µM]	-5%	3%	-23%	·	·	-10%	·
CCN(CC)c1ccc(/C=N/N(c2ccccc2)c2ccccc2)c(O)c1
    ?	?	-24%	2%	-4.4%	17%	?	?
O=c1c2nnn(-c3ccccc3)c2ncn1C/C=C/c1ccccc1
    ·	·	3%	0%	·	1%	-25%	·
CN(CC(=O)Nc1ccccc1Br)C(=O)CN1CCN(Cc2cccc(Cl)c2)CC1
    ?	?	4%	18%	·	·	-30%	·
O=C(CNC(=O)c1cncc(Br)c1)Nc1ccc(F)c(F)c1F
    4%[46.1 µM]	1%	-1%	8%	·	0%	28%	·
NC(=O)CC(NC(=O)c1ccccc1)c1ccc(NC2CCCCC2)c([N+](=O)[O-])c1 (stereo unspecified)
    ·	·	1%	-12%	·	0%	-11%	·
Cc1sc2c3ccsc3ccc2[n+]1C
    11%[46.1 µM]	-10%	-25%	-12%	·	·	-8%	·
CS(=O)(=O)N1CCC(C(=O)Nc2cccc(Cl)c2)CC1
    ?	25%	0%	4%	·	3%	-12%	·
CCOC(=O)C1CCN(C(=O)CCCn2nc(CC)n3c(cc4occc43)c2=O)CC1
    23%[46.1 µM]	8%[46.1 µM]	-2%	-6%	·	1%	20%	·
COC(=O)c1ccc(C)c(NC(=O)CCSc2ccccc2)c1
    -16%	-17%	6%	6%	4.3%	7%	-23%	2%
